Bioassay records deposited in PubChem BioAssay by National Center for Advancing Translational Sciences (NCATS).
PMP22 txn: modulators of PMP22 gene transcription in S16 Schwann cells; S16 Pmp22-F2sN Schwann cells (luciferase reporters placed in the Pmp22 gene), FLuc/NLuc coincidence luminescence, 24 h; Potency, µM (titrated, usually from 57.5 µM), inactives show at the highest dose activity change, negative = inhibition, most hits filed as inhibitors; 2% of 43,000 active; active = clear falling dose curves in both reporters; inconclusive = both reporters move, but less clearly or upward; inactive = either reporter flat; the % is the NLuc reporter signal; further: on the % scale 0 is the no-effect control and ±100 the full control effect; some results filed as inactive show a strong effect at the top dose
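S16 Schwann cells carrying FLuc/NLuc coincidence reporter in the Pmp22 3' UTR treated with compound 24 h at 37C; FLuc then NLuc luminescence read sequentially by dual-luciferase reagents.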
HTT promoter inh: HTT promoter inhibition. 0.93% of 48,000 active. AID 1508623. Potency, µM (titrated, usually from 57.5 µM), inactives show at the highest dose activity change, negative = inhibition, actives largely listed as inhibitors. HEK293 HTT promoter firefly luciferase reporter (activity 0% = vehicle and -100% = no light), 24 h; active means well fitted inhibition curve with a large enough effect; inconclusive means small, poorly fitted or top-dose-only effect; inactive means no such curve, though single readings can be large or run the other way; further: nearly all actives have a fitted effect of over 50% in size
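Firefly luciferase readout (Dual-Glo, 10 min RT) after 24 h, 37 °C compound exposure (final up to 57.5 uM) of HEK293 reporter cells cultured 24 h beforehand; PTC124 at 50 uM final as control inhibitor; activity scaled vehicle 0%, zero RLU -100%.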
Starred values were filed as active, the others as inactive; ? = inconclusive; . = no result given; & = joins results of further samples; [ ] = another dose, or the depositor's remark. Potency means the concentration at half of the fitted maximal effect.

smiles | PMP22 txn | HTT promoter inh
CCN1C(=O)C2(c3ccccc31)c1c(oc3ccc(F)cc3c1=O)C(=O)N2CCCOC (centres undefined) | -6% | -9%
Cc1ccc2nc(-c3ccc(Cl)s3)c(Nc3ccc4c(c3)OCCO4)n2c1 | -16% | 41%[activator]
CCOC(=O)c1cc(OC(=O)c2ccc(C)cc2)n(-c2ccccc2)n1 | -30% | -5%
Nc1ncnc2c1ncn2[C@@H]1O[C@@H](CO)[C@H](O)[C@H]1O | . | 24%[25.2 µM]
O=C(CN(c1cccc(Br)c1)S(=O)(=O)c1ccccc1)N1CCc2ccccc2C1 | ? | ?
CCOC(=O)c1cnc2cc(C(F)(F)F)ccc2c1Nc1cc(C)ccc1OC | -7% | -13%[11.5 µM]
COCc1nc2ccccc2n1Cc1cccc(C)c1 | -20% | 15%
CCOc1ccccc1N(C)C(=O)c1cc2c(s1)-c1ccccc1OC2 | ? | -28%
CCOc1ccccc1CNC(=O)CCn1ccc2cc(S(=O)(=O)N3CCCCC3)ccc21 | ? | ?
COc1ccccc1NC(=O)CSc1ncc2c(n1)-c1ccccc1N(Cc1ccccc1C)S2(=O)=O | -3% | ?
COc1ccc(C(CNC(=O)Cc2ccc(Cl)cc2)N2CCOCC2)cc1 (centres undefined) | -3% | -3%
COc1ccc(NC(=O)c2c(C)oc3ccc(O)c(CN4CCCCCC4)c23)cc1 | 8% | -8%
O=C(Nc1ccc(C(=O)OCc2cc(=O)n3ccsc3n2)cc1)c1cccc(F)c1 | -13% | -4%
O=C(/C=C/c1ccc(Cl)cc1)N1CCC(c2nc3ccccc3o2)CC1 | -25% | 26%
Cc1ccc(C)c(NC(=O)Cn2cc(S(=O)(=O)NC(C)C)c(S(=O)(=O)NC(C)C)c2)c1 | 16% | -12%

Reformatted with each value named: 4 of the compounds above
compound: Nc1ncnc2c1ncn2[C@@H]1O[C@@H](CO)[C@H](O)[C@H]1O
  PMP22 txn: .; HTT promoter inh: 24%[25.2 µM]

compound: O=C(CN(c1cccc(Br)c1)S(=O)(=O)c1ccccc1)N1CCc2ccccc2C1
  PMP22 txn: ?; HTT promoter inh: ?

compound: CCOC(=O)c1cnc2cc(C(F)(F)F)ccc2c1Nc1cc(C)ccc1OC
  PMP22 txn: -7%; HTT promoter inh: -13%[11.5 µM]

compound: COCc1nc2ccccc2n1Cc1cccc(C)c1
  PMP22 txn: -20%; HTT promoter inh: 15%

4 entries from above, set out differently:
Values in the order: PMP22 txn, HTT promoter inh
O=C(CN(c1cccc(Br)c1)S(=O)(=O)c1ccccc1)N1CCc2ccccc2C1
    ?, ?
COc1ccc(NC(=O)c2c(C)oc3ccc(O)c(CN4CCCCCC4)c23)cc1
    8%, -8%
CCOc1ccccc1CNC(=O)CCn1ccc2cc(S(=O)(=O)N3CCCCC3)ccc21
    ?, ?
O=C(/C=C/c1ccc(Cl)cc1)N1CCC(c2nc3ccccc3o2)CC1
    -25%, 26%

The list continues.
smiles | PMP22 txn | HTT promoter inh
Cc1ccc(O)c(-c2n[nH]c3c2C(c2ccccc2F)N(Cc2ccco2)C3=O)c1 (centres undefined) | ? | ?
COc1ccc(-n2c(=O)c3ccccc3n(CC(=O)Nc3ccccc3OC)c2=O)cc1 | -5% | -18%
CCS(=O)(=O)N1CCc2cc(C(=O)Nc3cccc(NC(C)=O)c3)ccc21 | ? | 4%
Cc1ccccc1NC(=O)c1sc2nc(N3CCOCC3)c3c(c2c1N)CC(C)(C)OC3 | -8% | 62%[activator]
COc1ccc(-c2nc(C)c(CCNC(=O)C(=O)Nc3cc(C)cc(C)c3)s2)cc1OC | ? | 3%
N#Cc1ccc(C(=O)N2CCN(c3nc4ccc(F)cc4s3)CC2)cc1 | ? | ?
Cc1cc(OC(C)C(=O)Nc2cccc(-c3nc4ccccc4o3)c2)cc(C)c1Cl (centres undefined) | 9% | 29%
CCc1ccc(-c2nc3cc(NC(=O)c4ccc(C)c(C)c4)ccc3o2)cc1 | -15% | 2%
Cc1ccc(S(=O)(=O)c2[nH]c(-c3ccccc3)nc2SCC(=O)O)cc1 | -1% | -18%
Cc1ccc(S(=O)(=O)c2c(Nc3cc(C)ccc3C)sc(C(=O)c3ccc4c(c3)OCO4)c2N)cc1 | ? | ?
COc1ccc(N2CC(NC(=O)C3CCCC3)CC2=O)cc1OC (centres undefined) | -21% | -3%
COc1ccc(OCC(=O)Nc2ccc(-c3nc4cc(C)cc(C)c4o3)cc2)cc1 | -38% | 28%
O=c1c2sc3ccccc3c2n(Cc2cccc(C(F)(F)F)c2)c(=O)n1Cc1ccccc1 | -11% | -21%
COc1ccc(NC(=O)C(NC(=O)/C=C\c2ccc3c(c2)OCO3)c2ccc(OC)cc2)cc1 (centres undefined) | ? | -23%
Cc1ccc(NC(=O)CSc2nncn3c2cc2sccc23)cc1F | -12% | 6%
Cc1cc(N2CCN(C)CC2)nc2ccc(NC(=O)Nc3ccc(F)cc3)cc12 | ? | 25%
CCOc1ccccc1N(C)C(=O)c1cc(S(=O)(=O)NCCc2ccc(Cl)cc2)ccc1F | -20% | ?
Cc1ccc(NC(=O)CSc2ncc3c(n2)-c2ccc(Cl)cc2N(C)S3(=O)=O)cc1F | ? | -23%
COc1cc(OC)cc(C(=O)Nc2ccc(-c3nc4ccccc4s3)cc2C)c1 | -15% | -6%
CCOc1cc2[nH]c(=O)n(CCCCC(=O)N3CCN(c4ccccc4OC)CC3)c(=O)c2cc1OCC | ? | -16%
COc1ccc2cc(CCNS(=O)(=O)c3ccc(C)cc3)c(=O)[nH]c2c1 | -5% | -16%
Cc1oc(-c2cccc(Cl)c2)nc1CN1CCCC(C(=O)NCc2ccc(Cl)cc2)C1 (centres undefined) | ? | -13%
O=C(c1ccc2c(c1)N(Cc1ccc(Cl)cc1)C(=O)c1ccccc1S2(=O)=O)N1CCC(Cc2ccccc2)CC1 | -23% | ?
CCN1CCN(c2cc(C)c3cc(NC(=O)c4cccc(Cl)c4)ccc3n2)CC1 | ? | 35%[activator]
CC(C)(C)c1ccc(O)c(O)c1 | . | ?
Cc1ccc(Cl)cc1NS(=O)(=O)c1cc2c3c(c1)CC(=O)N3CCC2 | -15% | ?
CCCN(CCC)c1cc(C)nc2nc(-c3ccc(C(C)(C)C)cc3)nn12 | ? | -15%
Cc1ccc(C)c(NC(=O)C2CCCN(S(=O)(=O)c3ccc4[nH]c(=O)ccc4c3)C2)c1 (centres undefined) | ? | -15%
COc1ccc(-c2cc(C(=O)Oc3ccc(C)cc3)c3cc(C)ccc3n2)cc1 | ? | 3%
COc1cc([C@@H]2c3cc4c(cc3[C@H](O)[C@H]3COC(=O)[C@H]23)OCO4)cc(OC)c1OC | . | -26%&-28%
O=C(NCC(c1ccc2c(c1)OCO2)N1CCN(c2ccccc2)CC1)C(=O)Nc1ccc(F)cc1 (centres undefined) | -2% | 72%[activator]
COc1ccc(NC(=O)c2nnn(CC(=O)Nc3ccc(C)c(C)c3)c2N)cc1OC | 15% | ?
CC(=O)c1cc(-c2ccc(F)cc2)n(CCC(=O)Nc2nc3ccc(C)cc3s2)c1C | -38% | ?
COc1ccc(C(=O)COC(=O)c2cc(-c3cccs3)nc3ccccc23)cc1 | -15% | 16%
COc1ccc2c(C)cc(SCC(=O)Nc3nsc(-c4ccccc4C)n3)nc2c1 | -70% | -9%
COc1ccc(-c2cc(C(=O)NCCc3ccccc3)c3c(-c4ccccc4)[nH]nc3n2)cc1OC | ? | -3%
COC(=O)c1scc(-c2ccc(C)cc2)c1S(=O)(=O)N1CCN(c2ccccc2F)CC1 | ? | -31%
COC(=O)c1ccc(NC(=O)C2CCN(S(=O)(=O)c3ccc4c(c3)CCCN4C(C)=O)CC2)cc1 | 17% | ?
Cc1cc(=O)c2cc(C(=O)Nc3ccccc3)ccc2[nH]1 | 15% | 19%
Cc1cc(Nc2cccc(C)c2C)n2cnnc2n1 | -13% | 3%
CCCSCCCNC(=O)c1ccc(Cn2c(=O)c3cccn3c3cccnc32)cc1 | ? | -4%
Cc1cccc(C(=O)Nc2cc3c(cc2C)n(C)c(=O)n3C)c1 | 5% | 7%
Cc1ccc(-c2ccc(=O)n(CCC(=O)NCCc3ccccc3)n2)cc1 | 8% | 4%
CCCCCC1Nc2cc(C(F)(F)F)c(S(N)(=O)=O)cc2S(=O)(=O)N1 (centres undefined) | . | -4%
Cc1oc(-c2cccc(Br)c2)nc1Cn1c(=O)cc(-c2ccccc2)c2c(C)nn(C)c21 | -3% | 8%
CCOc1ccccc1NC(=O)CN1C(=O)COc2ccc(S(=O)(=O)N3CCCCC3)cc21 | -2% | 2%
CCSc1ncc(Cl)c(C(=O)Nc2c(C(=O)Nc3ccccc3)oc3ccccc23)n1 | -36% | ?
COc1ccc(N(Cc2cccs2)C(=O)COc2ccc([N+](=O)[O-])cc2)cc1 | ? | -27%
COc1ccccc1Cn1ccn(Cc2c(F)cccc2Cl)c(=O)c1=O | ? | -71%
Cc1cn2c(=O)cc(COc3ccc(NC(=O)c4cccc(F)c4)cc3)nc2s1 | 4% | -17%
CCn1cc(C(=O)NCc2ccccc2)c(=O)c2cc(S(=O)(=O)N3CCCCC3)ccc21 | ? | 12%[11.5 µM]
COc1ccc(OC)c(C2CC(=O)N(c3cccc(C)c3)C3=C2C(=O)OC3)c1 (centres undefined) | 3% | -25%
CCCNC(=O)CN1CCN(c2ncc(NC(=O)c3ccc(Cl)cc3)cc2C(=O)O)CC1 | -4% | -11%
Cc1ccc(Cn2nc3n(c2=O)-c2cc(Cl)ccc2OC3)cc1 | -2% | -9%
C#CCn1c(COc2ccccc2C)nc2ccccc21 | -3% | 8%
CC(C)(C)OC(=O)N1CCC(c2c(C(=O)NCc3cccc(Cl)c3)cnn2-c2ccc(F)cc2)CC1 | ? | -17%
COc1ccc(NC(C)=O)cc1NC(=O)CN1CCN(c2ccc(F)cc2)CC1 | 5% | -21%
CCOc1ccccc1NC(=O)CN1C(=O)C(=O)c2ccccc21 | ? | -12%
CCCN(CCC)C(=O)C1CCCN(S(=O)(=O)c2ccc3c(c2)oc(=O)n3C)C1 (centres undefined) | -14% | -14%
CCCN(CCC)c1cc(C)nc2nc(-c3ccc(Cl)cc3)nn12 | -2% | -4%

(cont.)
smiles | PMP22 txn | HTT promoter inh
CCCCNc1nc(Oc2ccc(OCC(N)=O)nn2)nc(N2CCOCC2)n1 | -9% | -6%
CCN1CCN(c2oc(-c3ccc(COc4ccc(OC)cc4)o3)nc2C#N)CC1 | ? | -25%
COC(=O)c1c(-c2ccccc2)c(-c2ccccc2)nn(C)c1=O | 76% | ?
COc1ccc(NC(=O)c2ccc3c(c2)N(Cc2cccc(Cl)c2)C(=O)c2ccccc2S3(=O)=O)cc1Cl | -1% | -10%
Fc1ccc(-c2cc(-c3ccc(F)cc3)c3c(n2)-c2cc(F)ccc2OC3)cc1 | 3% | -17%
O=C(NCc1ccc(Cl)cc1)C1CCN(S(=O)(=O)c2ccc3c(c2)CCCN3C(=O)C2CCC2)CC1 | ? | ?
COc1ccc(C(=O)NCCSc2c[nH]c3ccccc23)cc1OC | 1% | -21%
CC(CCCc1ccccc1)NC(=O)c1nn(-c2ccc(Cl)cc2)nc1CO (centres undefined) | -13% | ?
O=C(COCc1cc(-c2ccc3c(c2)OCO3)on1)N1CCN(c2cccc(C(F)(F)F)c2)CC1 | ? | ?
N[C@@H]1CONC1=O | . | 5%&15%
CCCCCCCCCCCCCC(=O)OC(C)C | . | 17%
CCCCOc1ccc(CNC(=O)c2cccc(NC(=O)N3CCSc4ncccc43)c2)cc1 | ? | ?
CCc1ccc(CNC(=O)c2ccc(CS(=O)(=O)Cc3cccc(C)c3)o2)cc1 | ? | ?
CCOc1ccc(NC(=O)Nc2cc3c(cc2N2CCCCC2)n(C)c(=O)n3C)cc1 | -10% | ?
COc1ccc2cc(CCC(C)=O)ccc2c1 | . | 33%
CN(C)c1ccc(NC(=O)CC(NCc2cccnc2)C(=O)O)cc1 (centres undefined) | -8% | -7%
COc1ccc(C(=O)c2oc3ccccc3c2NC(=O)COc2ccc(C)cc2)cc1 | -5% | -4%
Cc1ccc(S(=O)(=O)c2nc(-c3ccccc3Cl)oc2N2CCCCCC2)cc1 | ? | ?
Cc1ccc(N(C)C(=O)c2cc(S(=O)(=O)N3CCOCC3)cn2C)cc1 | -16% | -4%
O=C(Nc1nnc(S(=O)(=O)N2CCCCC2)s1)c1ccc(Cl)cc1 | 17% | -12%
COC(=O)c1ccccc1NC(=O)c1nn(-c2ccc(OC)cc2)c(=O)c2c1c1ccccc1n2C | 84% | -28%
CCOc1ccc(/C=C/c2nc(C#N)c(NC3CCCCC3)o2)cc1 | -11% | 1%
CC(C)C(=O)Nc1ccc([N+](=O)[O-])c(C(F)(F)F)c1 | . | ?
O=C(CCc1ccc(O)cc1)c1c(O)cc(O)cc1O | . | ?
CC(C)(C)NS(=O)(=O)c1ccc2nc(NC(=O)c3cccnc3)sc2c1 | 23% | 0%
